# Six1-Eya2 inh = qHTS Assay for Inhibitors of the Six1/Eya2 Interaction; 360,000 compounds, 0.56% hits; activity change, % (concentration not given with the values); AlphaScreen GST-Six1/His-Eya2 binding, biochemical; stronger effect = lower value; control for the full effect not named in the record; Homeobox protein SIX1 (Homo sapiens) + Protein phosphatase EYA2 (Homo sapiens), …; AID 651725, 2012; in the data active = activity change below about -65%; inconclusive = about -30% to -65%; inactive = above about -30%; also: % is scaled to controls: 0 for no effect and ±100 for the full control effect
#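 Compounds are tested against tagged Six1 and Eya2 proteins bridged by glutathione donor and nickel acceptor beads; after a one-hour incubation at 37 °C without light, AlphaScreen emission is recorded.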
# PINK1 expr mod = A Quantitative High throughput Screen to Identify Chemical Modulators of PINK1 Expression; Potency, µM (highest dose often 76.6 µM), for inactives: at the top dose activation (PINK1 increase), most hits filed as activators; AID 624263, 2012; 410,000 compounds, 0.2% hits; PINK1 immunofluorescence, high-content cytometry, 24 h; active = well fitted activation curve with a large enough effect; inconclusive = small, poorly fitted or top-dose-only effect; inactive = flat fitted curve, though single readings scatter; cell line not stated here;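 also: potency is read from the fitted curve at half-maximal effect; % of control where 0% means no effect; nearly all actives have a fitted effect of over 65% in size; a mitochondrial uncoupler was the plate control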
#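 Stable cell line, 250 cells/well, 12 h attachment; compounds pinned at 5 concentrations, 24 h; CCCP control. Fixed with nuclear dye, primary antibodies 12 h at 10 degrees C, secondary plus cell stain; laser-scanning cytometer read.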
# TRPML1 blocker = qHTS for Inhibitors of the Human Mucolipin Transient Receptor Potential 1 (TRPML1); Mucolipin-1 (Homo sapiens), Q9GZU1; TRPML1-inducible cells, Ca2+ dye fluorescence, FDSS; stronger effect = lower value; inhibition of EC80 agonist-evoked calcium signal; activity change, negative = inhibition, % (no concentration beside the values); 390,000 compounds, 0.02% hits; in the data active means activity change below about -50%; inconclusive means about -30% to -50%; inactive means above about -30%;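 also: stimulus is agonist 54-4 at its EC80 concentration; % is scaled to controls: 0 for no effect and ±100 for the full control effect; compound concentration not given in the record; the text of the record puts the active cut at -80%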
# Target sequence (Q9GZU1 whole entry, looked up): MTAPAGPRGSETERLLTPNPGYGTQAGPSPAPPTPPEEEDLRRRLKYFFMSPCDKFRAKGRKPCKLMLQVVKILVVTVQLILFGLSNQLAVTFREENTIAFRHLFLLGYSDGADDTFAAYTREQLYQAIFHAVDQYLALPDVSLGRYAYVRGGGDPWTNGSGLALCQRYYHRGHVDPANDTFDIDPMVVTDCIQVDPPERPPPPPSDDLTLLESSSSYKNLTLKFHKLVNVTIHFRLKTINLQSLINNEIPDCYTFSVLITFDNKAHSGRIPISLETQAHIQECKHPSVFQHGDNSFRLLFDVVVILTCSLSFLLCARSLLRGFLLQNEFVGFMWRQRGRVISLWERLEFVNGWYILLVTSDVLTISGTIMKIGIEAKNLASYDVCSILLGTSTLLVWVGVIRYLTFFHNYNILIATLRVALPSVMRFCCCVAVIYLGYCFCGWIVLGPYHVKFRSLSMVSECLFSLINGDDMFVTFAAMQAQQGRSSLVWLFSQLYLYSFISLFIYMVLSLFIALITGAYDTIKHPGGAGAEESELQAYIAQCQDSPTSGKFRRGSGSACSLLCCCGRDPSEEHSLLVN
#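 Calcium fluorescence in TRPML1-DL cells induced overnight with Tet: a 110 s read after compound pin addition, then a 110 s antagonist read after challenge with 54-4 at 4 uM final (EC80).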
# D2 agonist = Beta-Arrestin HTS for Positive Allosteric Modulators of the Human D2 Dopamine Receptor: Agonists. DiscoveRx PathHunter D2 beta-arrestin, luminescence, 90 min; 100% = 57 uM dopamine signal. 360,000 compounds, 0.084% hits. AID 624465, 2012. D(2) dopamine receptor (Homo sapiens), P14416. activation, % (test concentration not listed); in the data active = activation above about 40%; inconclusive = about 15% to 40%; inactive = below about 15%; also: compound concentration not given in the record; the text of the record calls up to 30% inactive
# Target sequence (P14416 whole entry, looked up): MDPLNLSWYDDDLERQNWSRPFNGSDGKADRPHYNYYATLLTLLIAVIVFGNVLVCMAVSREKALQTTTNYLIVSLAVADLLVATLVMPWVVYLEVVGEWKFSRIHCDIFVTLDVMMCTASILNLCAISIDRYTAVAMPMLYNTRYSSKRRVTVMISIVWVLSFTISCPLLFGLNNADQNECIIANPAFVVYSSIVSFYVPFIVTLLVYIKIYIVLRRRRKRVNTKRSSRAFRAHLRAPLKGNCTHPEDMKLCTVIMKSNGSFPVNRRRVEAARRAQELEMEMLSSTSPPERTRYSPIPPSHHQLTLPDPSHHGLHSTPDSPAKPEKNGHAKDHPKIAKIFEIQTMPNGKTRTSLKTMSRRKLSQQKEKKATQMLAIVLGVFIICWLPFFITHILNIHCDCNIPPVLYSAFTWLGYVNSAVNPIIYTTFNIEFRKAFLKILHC
#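 DiscoveRx PathHunter D2 beta-arrestin cells (2,100/well) attached overnight, then compound-stimulated 90 min at 37 C in HBSS/10 mM HEPES/0.1% Tween-20 buffer; beta-galactosidase complementation read by luminescence after 1 h at ambient temperature. Dopamine 57 uM final (EC100) as control.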
# TRPML1 agonist = qHTS for Agonists of the Human Mucolipin Transient Receptor Potential 1 (TRPML1); Mucolipin-1 (Homo sapiens), Q9GZU1; TRPML1-expressing cells, Ca2+ dye fluorescence, FDSS; host cell line not named in the record; reference of the full effect not given here; activation, % (concentration not given with the values); 410,000 compounds, 0.12% hits; in the data active = activation above about 50%; inconclusive = about 30% to 50%; inactive = below about 30%; also: 0% is about no effect; the text of the record puts the active cut at 80%
#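 In this qHTS format, compounds were pin-transferred onto Ca8-dye-loaded TRPML1-DL cells induced with Tet overnight, and intracellular Ca2+ fluorescence was recorded kinetically for 110 s after a 10 s baseline. A subsequent 4uM final 54-4 (EC80) addition followed by a second 110 s read served as the antagonist phase.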
# CtBP-E1A inh = qHTS Assay for Inhibitors of the CtBP/E1A Interaction; 340,000 compounds, 0.49% hits; activity change, % (test concentration not listed); AlphaScreen GST-E1A/His-CtBP binding, 1536-well; stronger effect = lower value; control for the full effect not named in the record; AID 651724, 2012; in the data active means activity change below about -65%; inconclusive means about -30% to -65%; inactive means above about -30%; also: % is scaled to controls: 0 for no effect and ±100 for the full control effect
#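 Homogeneous bead-based format: GST-tagged E1A captured on glutathione donor beads, His-tagged CtBP on nickel acceptor beads; compounds precede bead addition by 2 h at 37 °C.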
# The depositor's hits bear a star; ? = inconclusive; · = no result given; & = joins results of further samples; [ ] = another dose, or the depositor's remark.
SMILES,Six1-Eya2 inh,PINK1 expr mod,TRPML1 blocker,D2 agonist,TRPML1 agonist,CtBP-E1A inh
CC1(C(=O)NS(=O)(=O)c2ccccc2Cl)CCN1C(=O)C1(c2ccc(Cl)cc2)CC1 (configuration not stated),4,1.1%,·,-2.5,-0.3,8
O=C(NCc1cccc(Cl)c1)c1ccc(NC(=O)N2CCSc3ccccc32)cc1,·,-0.9%,22,·,1.0,·
Cc1ccc(S(=O)(=O)CCC(=O)O)cc1C,7,7.1%[38.3 µM],-10,2.1,0.4,12
COc1ccc(-c2noc(CCCC(=O)NC3CCCC3)n2)cc1OC,3,3.0%,33,3.6,0.7,-5
COc1cc(-c2cccs2)cc(=O)c2c(C)oc(C)c12,-15,1.1%[38.3 µM],-3,0.0,0.9,-6
Cc1csc(CN(C)C(=O)CC2C(=O)NCCN2Cc2ccccc2C)n1 (configuration not stated),12,1.4%,-24,0.3,-0.2,4
C=CCn1c(O)c(C2=c3ccccc3=NC2=O)c2ccccc21,-8,-1.1%,-1,-8.0,0.7,-7
Cn1c(C(=O)Nc2cccc(C(F)(F)F)c2)cc2c(=O)n3ccccc3nc21,·,-0.4%,-4,·,1.5,·
CC1(C)C(=O)Nc2ccccc2N1C(=O)COC(=O)CCSc1ccccc1,-5,0.0%,-8,-2.5,0.3,-6
Cc1ccc(C(=O)NCCCNC(=O)c2cccnc2)cc1,-14,-0.6%,9,-1.5,0.2,-17
COc1ccc2nc(NC(=O)c3cc(C)oc3C)sc2c1,4,5.2%,-4,1.7,0.6,-1
Fc1ccc(OCc2nn[nH]n2)c(F)c1,0,0.3%,9,-4.1,-0.2,·
CC(=O)NN1CCc2cc3ccc(C)cc3nc21,-11,-1.3%,6,-0.5,1.7,-11
Cc1ccc(-c2nnn(CC(=O)N(c3ccc(F)cc3)C(C(=O)NC(C)(C)C)c3ccco3)n2)o1 (configuration not stated),6,6.5%,1,-0.5,-1.3,-2
O=C1[C@H]2[C@H](ON3CCCC[C@H]23)C(=O)N1c1ccc(Cl)cc1,-3,-1.2%,-6,0.9,-0.8,0
CN1CCN(Cc2c(O)ccc3cc(-c4ccc(Cl)cc4)c(=O)oc23)CC1,·,-0.8%,-7,·,5.8,·
COc1cccc(CNC(=O)CCNC(=O)c2ccccc2OC)c1,-7,1.3%,-1,-2.9,-0.9,-12
Cc1cnc(NC(=O)CN2CCN(c3ccccc3F)CC2)s1,0,5.4%,-18,2.8,0.3,0
CC(=O)Nc1ccc(S(=O)(=O)NCC2CCC(C(=O)NCCc3ccc(C)cc3)CC2)cc1 (configuration not stated),·,1.2%,-3,·,2.1,·
CCCC(=O)N1CCN(c2ccc(NC(=O)c3cccs3)cc2Cl)CC1,-10,0.1%,?,-1.1,0.4,-1
Cn1cc(S(=O)(=O)c2ccccc2)c(=O)c2cc(Cl)ccc21,4,3.7%,-6,-0.4,0.2,-4
COc1ccc(NC(=O)Cc2ccc(Cl)cc2)cc1NC(=O)c1ccco1,-4,4.4%[38.3 µM],-15,-1.3,-0.1,-3
Cc1ccc(C)c(NC(=O)CN(C)C(=O)c2oc3c(Cl)cccc3c2C)c1,-6,15%,0,0.6,0.4,1
CC(=O)c1cc2c(cc1NC(=O)CN1CCN(c3ccc(F)cc3)CC1)OCO2,4,5.1%,-11,-3.2,-0.6,-2
CC(=O)/C(N=Nc1ccc(-n2ccc(C(F)(F)F)n2)cc1)=C(\C)O,-1,0.5%,5,2.3,0.6,1

# 5 structures out of the list, sorted by formula weight, largest number first:
SMILES,Six1-Eya2 inh,PINK1 expr mod,TRPML1 blocker,D2 agonist,TRPML1 agonist,CtBP-E1A inh
CC(=O)c1cc2c(cc1NC(=O)CN1CCN(c3ccc(F)cc3)CC1)OCO2,4,5.1%,-11,-3.2,-0.6,-2
Cc1csc(CN(C)C(=O)CC2C(=O)NCCN2Cc2ccccc2C)n1 (configuration not stated),12,1.4%,-24,0.3,-0.2,4
Cc1ccc(C)c(NC(=O)CN(C)C(=O)c2oc3c(Cl)cccc3c2C)c1,-6,15%,0,0.6,0.4,1
Cn1cc(S(=O)(=O)c2ccccc2)c(=O)c2cc(Cl)ccc21,4,3.7%,-6,-0.4,0.2,-4
Fc1ccc(OCc2nn[nH]n2)c(F)c1,0,0.3%,9,-4.1,-0.2,·

# (next part)
SMILES,Six1-Eya2 inh,PINK1 expr mod,TRPML1 blocker,D2 agonist,TRPML1 agonist,CtBP-E1A inh
COc1ccc(NC(=O)N(C2CCCCC2)C(C)c2ccco2)c(OC)c1 (configuration not stated),-10,-5.6%[38.3 µM],1,-0.4,0.0,-10
CCOc1ccc(NC(C)=O)cc1N,2,0.2%,-5,3.6,-0.3,6
COc1cc(OC)c(NC(=O)COc2ccccc2-c2nnc(-c3ccccc3)o2)cc1Cl,·,-0.2%,-8,·,-0.7,·
COc1cc(/C=C/C(=O)O)cc(S(=O)(=O)NC2CCCC2)c1OC,9,2.3%,1,-4.1,-0.2,·
O=C(OCc1c(Cl)cccc1Cl)c1cccnc1Cl,10,5.8%,11,-0.5,1.1,27
CN(C)CCN(Cc1ccccc1)S(=O)(=O)c1ccc(-c2cc(C(F)(F)F)on2)s1,·,5.1%,12,·,0.8,·
COc1cccc(/C=N/NC(=O)CSc2cccc3cccnc23)c1,-94*,-0.1%,23,-5.4,5.4,-94*
COc1ccc(NC(=O)CC2C(=O)N(c3ccccc3)C(=O)N2Cc2ccco2)cc1 (configuration not stated),-2,1.8%,12,2.2,2.4,0
O=C(NC1CCCCCC1)c1c(F)c(F)c(F)c(F)c1F,12,-0.9%,-9,2.2,1.6,0
CN(C)C(=O)C(=O)c1c(-c2ccccc2)cc2ccccn12,0,-1.6%,-7,-4.2,-0.9,5
COc1ccc(C(CNC(=O)c2ccc(NS(=O)(=O)c3cccc([N+](=O)[O-])c3)cc2)N2CCOCC2)cc1 (configuration not stated),-1,1.6%,-10,-4.4,-0.1,4
COCCN(C(=O)CSc1nnc2cc(C)c3ccccc3n12)c1c(N)n(Cc2ccccc2)c(=O)[nH]c1=O,-1,-1.2%,47,0.3,0.6,0
CN(C(=O)COC(=O)c1cccc(S(=O)(=O)N2CCCCC2)c1)C1CCS(=O)(=O)C1 (configuration not stated),4,-1.9%,11,-2.5,0.9,3
Cc1ccc(-n2c(C3CC3c3ccc(Cl)cc3)n[nH]c2=S)cc1 (configuration not stated),7,-4.6%[38.3 µM],-11,2.4,3.2,28
O=C(Nc1ccccc1Oc1cccnc1)C1CCCN(Cc2ccccc2O)C1 (configuration not stated),15,-0.5%,0,-4.0,-0.1,0
COc1cc(C(=O)N2CCN(c3cccc(C)c3C)CC2)ccc1OCC(=O)N1CCOCC1,-1,0.5%,0,-1.2,-0.2,6
O=C(COc1cccc2ccccc12)Nc1ccc(Cl)cc1C(=O)O,-9,?,-5,-2.7,0.0,3
Cc1ccc(SCCC(=O)Nc2ccccc2C(=O)NC2CCCCC2)cc1,-4,8.8%,17,-5.8,0.4,-18
NC(=O)Cc1ccc(C(=O)c2ccc(Cl)cc2)s1,-3,5.4%,5,0.4,-0.8,4
CC(C)c1ccc(S(=O)(=O)/N=C2\C=C(NS(=O)(=O)c3ccccc3)C(=O)c3ccccc32)cc1,-12,-1.1%,6,-4.9,4.4,-29
CCN(Cc1cc(=O)[nH]c2ccccc12)C(=O)c1ccc(C)cc1,9,2.8%,-10,-2.7,-0.2,·
CCN(C(=O)CSc1nc2ccccc2n1CC(=O)Nc1cccc(C#N)c1)c1ccccc1,·,3.5%,12,·,-0.8,·
COCC(C)n1c(C)cc(C(=O)COC(=O)c2n[nH]c3ccccc23)c1C (configuration not stated),-12,-2.3%,13,0.7,0.6,-23
CCOC(=O)c1ccc(NC(=O)CSc2nc3c(c(=O)n2-c2ccccc2OC)SCC3)cc1,-2,0.2%,-1,1.3,0.0,1
CC(=O)Nc1ccc(Nc2ncnc3c2cnn3-c2ccc(C)cc2C)cc1,0,8.1%[38.3 µM],-10,0.6,-0.6,-7
# Next records:
SMILES,Six1-Eya2 inh,PINK1 expr mod,TRPML1 blocker,D2 agonist,TRPML1 agonist,CtBP-E1A inh
COCC(=O)N(C)C[C@H]1N[C@@](C)(C(=O)OC)[C@H]2C(=O)N(C)C(=O)[C@@H]12,4,-0.5%,-11,0.7,0.8,9
CCOc1ccc(-n2c(N)c(C(=O)N3CCN(C)CC3)sc2=S)cc1,-2,1.4%,0,-6.8,0.6,·
O=C(COC(=O)Cc1ccc(Cl)cc1)Nc1c(F)cccc1F,10,1.2%,-15,-4.9,0.5,6
O=C(Cc1cccs1)Nc1ccc2c(c1)C(=O)OC2,?,-4.7%[38.3 µM],-5,0.9,-0.4,?
COCC1CCCN(C(=O)c2ccc3oc(C(C)C)nc3c2)C1 (configuration not stated),2,2.0%,32,0.9,-0.5,7
Cc1ccnc(NC(=O)c2ccccc2[N+](=O)[O-])c1,-1,0.1%,0,-0.1,0.8,0
C/C(=N\Nc1ccc(Cl)nn1)c1ccccc1O,-71*,0.0%,11,-6.8,0.1,-88*
CC1CCCCN1S(=O)(=O)c1ccc(C(=O)Nc2nnc(-c3ccncc3)o2)cc1 (configuration not stated),-4,-0.3%,21,-2.2,0.2,-10
CCOc1ccc(CCNC(=O)COC(=O)/C=C/c2cccc(OC)c2)cc1OCC,-1,2.5%,18,2.0,0.1,-11
CCNC(=O)N(CC)C[C@H]1N[C@@](Cc2ccccc2)(C(=O)OC)[C@H]2C(=O)N(Cc3ccccc3)C(=O)[C@@H]12,0,-0.6%,5,-1.2,0.1,-2
CCOC(=O)CC1CCCCN1C(=O)CCCn1nnnc1CN1CCOCC1 (configuration not stated),18,1.2%,4,-1.4,-0.4,-3
COC(=O)c1cc(Br)ccc1N(Cc1cc(OC)cc(OC)c1)S(C)(=O)=O,-19,1.4%,33,-2.4,0.3&-0.8,-1
COc1cc(CN(C(=O)c2ccccc2F)C2CCS(=O)(=O)C2)cc(OC)c1OC (configuration not stated),·,0.2%,7,·,0.2,·
COC(=O)c1cn(NC(=O)c2cc([N+](=O)[O-])ccc2F)c(=O)c2ccccc12,-3,0.1%,0,-4.8,-0.5,0
CC(C)(C)OC(=O)N1CCCC(C(=O)Nc2ccc(C(=O)N3CCCCC3)cc2)C1 (configuration not stated),-2,0.4%,-10,-0.2,-0.5,6
Cc1cc(C)c(-n2c(C)cc(/C=C3/NC(=O)NC3=O)c2C)c(C)c1,-13,-0.3%,11,-1.5,3.7,-3
COC(=O)c1ccc(C)c(NC(=S)NCc2ccc(Cl)cc2)c1,6,3.6%,3,-6.2,4.9,1

# Screens as filed in PubChem BioAssay.
